# miR-21 reporter: miR-21 reporter, rising signal; HeLa miR-21 FLuc reporter, luciferase, 48 h; Potency, µM (titrated, usually from 38.3 µM), for the others: at the top dose reporter change, positive = more light; 340,000 tested, under 10 active; AID 2288; active = well fitted rising curve with a large enough effect; inconclusive = small, poorly fitted or top-dose-only effect; inactive = no such curve, though single readings can be large or run the other way;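 also: % of control where 0% means no effect; miR-21 action dims this reporter so a rising signal means less miR-21 action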
#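 HeLa cells stably expressing CMV-driven firefly luciferase with a downstream miR-21 binding sequence, endogenously expressing miR-21, were treated with titrations (up to about 40uM final) for 48 hours at 37 degree Celsius. Luciferase luminescence was read after lysis.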
# * hit, by the source's call; ? = inconclusive. Not all compounds are listed; rates above refer to the full screens.
# The first 5 entries as a preview:
canonical_smiles	miR-21 reporter
CCOc1ccc(NS(=O)(=O)c2ccc3nc(-c4ccccc4)[nH]c3c2)cc1	19%
O=C(CSc1oc(-c2ccccc2)nc1S(=O)(=O)c1ccc(Cl)cc1)NC1CCCCC1	1%
CC(C)(C)c1ccc(C(=O)Nc2cc(-c3nc4ccccc4o3)ccc2Cl)cc1	-10%
Nc1c(-c2nc(-c3ccc4c(c3)OCO4)cs2)c2ccccn2c1C(=O)c1ccccc1	0%
CCOC(=O)c1[nH]c(C)c(CCC(=O)N2CCN(c3ccccc3)CC2)c1C	-6%

# This part in full, from the start:
canonical_smiles	miR-21 reporter
CCOc1ccc(NS(=O)(=O)c2ccc3nc(-c4ccccc4)[nH]c3c2)cc1	19%
O=C(CSc1oc(-c2ccccc2)nc1S(=O)(=O)c1ccc(Cl)cc1)NC1CCCCC1	1%
CC(C)(C)c1ccc(C(=O)Nc2cc(-c3nc4ccccc4o3)ccc2Cl)cc1	-10%
Nc1c(-c2nc(-c3ccc4c(c3)OCO4)cs2)c2ccccn2c1C(=O)c1ccccc1	0%
CCOC(=O)c1[nH]c(C)c(CCC(=O)N2CCN(c3ccccc3)CC2)c1C	-6%
COc1cc(Br)ccc1C1C(C(=O)Nc2ccc(C)cc2C)=C(C)Nc2nnnn21 (stereo not drawn)	-3%
O=C(Nc1ccc(F)c(Cl)c1)c1cc(S(=O)(=O)N2CCCc3ccccc32)ccc1F	15%
O=C(CC1(O)C(=O)N(CCc2ccccc2)c2ccc(Br)cc21)c1ccccc1 (stereo not drawn)	23%
Cc1cc(NC(=O)CN2CCC(O)CC2)nc2c1c(=O)oc1ccccc12	-2%
CCc1ccc(NC(=O)c2cnc3sc(N4CCCC4)nn3c2=O)cc1	6%
COc1cccc(C(=O)NCC(c2ccc3c(c2)OCO3)N2CCOCC2)c1 (stereo not drawn)	-2%
CC(=O)c1cccc(NC(=O)C2CCN(c3nnc(-n4cccc4)s3)CC2)c1	-2%
CC(C)NC(=O)c1ccc(Cn2c(SCC(N)=O)nc3ccccc3c2=O)cc1	-14%
COc1cccc(CNC(=O)C2CCN(C(=O)c3cnn(-c4ccccc4)c3-n3cccc3)CC2)c1	18%
CCCN(CCC)C(=O)Cn1c(=O)n(-c2ccc(CC)cc2)c(=O)c2ccc(C(=O)NCCc3ccccc3)cc21	-6%
COc1ccc(NC(=O)CSc2oc(-c3ccco3)nc2S(=O)(=O)c2ccc(C)cc2)c(OC)c1	9%
CCOC(=O)c1ccc(NC2=CC(c3ccc(Br)cc3)N(c3ccc(C(=O)OCC)cc3)C2=O)cc1 (stereo not drawn)	-25%
COc1ccc(CNC(=O)Cn2c(=O)cc(C)c3c(C)nn(-c4cccc(Cl)c4C)c32)cc1	0%
COC(=O)c1cc(NC2(c3ccccc3)C(=O)c3ccccc3C2=O)cc(C(=O)OC)c1	-5%
CCOc1cccc(C(=O)N2CCC(c3nc4ccccc4s3)CC2)c1	0%

# Quoted at random: 4 compounds from above, in no set order.
canonical_smiles	miR-21 reporter
CCOC(=O)c1[nH]c(C)c(CCC(=O)N2CCN(c3ccccc3)CC2)c1C	-6%
CC(=O)c1cccc(NC(=O)C2CCN(c3nnc(-n4cccc4)s3)CC2)c1	-2%
COC(=O)c1cc(NC2(c3ccccc3)C(=O)c3ccccc3C2=O)cc(C(=O)OC)c1	-5%
CC(C)(C)c1ccc(C(=O)Nc2cc(-c3nc4ccccc4o3)ccc2Cl)cc1	-10%

# Next section:
canonical_smiles	miR-21 reporter
CC1Cc2cc(S(=O)(=O)CCC(=O)Nc3ccc(F)cc3Cl)ccc2N1C(=O)C1CC1 (stereo not drawn)	7%
CC(C)(C)OC(=O)N1CCC(c2c(C(=O)NC3CCCCC3)cnn2-c2ccc(F)cc2F)CC1	11%
Cc1cc(N2CCC(C)CC2)nc2ccc(NC(=O)CCC(=O)N3CCN(c4cccc(C(F)(F)F)c4)CC3)cc12	13%
CCOC(=O)c1ccccc1NC(=O)COc1ccccc1-c1nnc(-c2ccccc2)o1	?
CCOC(=O)COc1ccc(F)cc1C(=O)c1ccn2nc(-c3ccc(C)cc3)cc2n1	-2%
CCC(C)Nc1sc(S(=O)(=O)CC)nc1S(=O)(=O)c1ccc(C)cc1 (stereo not drawn)	-1%
CCN(CC)CCCNC(=O)c1nn(-c2ccc(C)cc2)c(=O)c2c1c1ccccc1n2C	-34%
Fc1ccc(C(Nc2ccccc2Cl)c2nnc(-c3ccccc3Cl)o2)cc1 (stereo not drawn)	-1%
Cc1ccc(NC(=O)N2CCN3CCCCC3C2)cc1C (stereo not drawn)	-16%
Cc1cccc(C(=O)Nc2nc3c(s2)CCCC3)c1	11%
CC(=O)c1cccc(NC(=O)CSc2nnc3ccc(-c4ccc(F)cc4)nn23)c1	-1%
CCOc1ccc(-c2cc(C(=O)NCCc3ccc(OC)c(OC)c3)c3c(-c4ccc(F)cc4)[nH]nc3n2)cc1	-2%
COc1ccc(NC(=O)Cn2c(=O)oc3cc(S(=O)(=O)NC4CCCC4)ccc32)cc1OC	3%
Cc1ccc(Nc2c3c(nc4nncn24)CCC3)c(C)c1	0%
Cc1ccc2[nH]c(CSc3nnc(NC(=O)c4ccccc4C)s3)cc(=O)c2c1	-1%
Cc1ccc(C(=O)Nc2nc3n(n2)C(c2ccccc2)C=C(c2ccccc2)N3)cc1 (stereo not drawn)	-31%
CCOc1ccc(CNC(=O)CCn2c(=O)c3cccn3c3cccnc32)cc1	0%
Cc1nc(SCC(=O)Nc2nsc(-c3ccc(C(C)(C)C)cc3)n2)c2c3c(sc2n1)CCCC3	-24%
CCc1ccc(NC(=O)[C@H](CSCc2ccccc2)N2Cc3ccccc3C2=O)cc1	-1%
CCOC(=O)C1(C)C=C(Nc2ccc(C)cc2)C(=O)N1c1ccccc1 (stereo not drawn)	-5%
O=C(CCCCCn1c(=O)[nH]c2ccsc2c1=O)NCc1ccccc1	-3%
COc1cccc(NS(=O)(=O)c2ccc3c(c2)n(C)c(=O)n3C)c1	?
COc1ccc(Cl)cc1NC(=O)Cn1ncc2c3ccccc3n(Cc3ccccc3)c2c1=O	0%
O=C(NC1CCN(Cc2ccccc2)CC1)c1ccc(Cn2c(=O)c3ccccc3n(Cc3cccc(F)c3)c2=O)cc1	1%
Cc1cc(C)cc(NC(=O)c2nnn(Cc3cccc(Br)c3)c2N)c1	5%
CC(=O)c1ccc(N2CCN(S(=O)(=O)c3ccc4c(c3)C(C)(C)C(=O)N4)CC2)cc1	-8%
Brc1cccc(CNCCSc2nnnn2-c2ccccc2)c1	0%
CC(=O)N1CCOc2cc(S(=O)(=O)Nc3cc(C(F)(F)F)ccc3Cl)c(C)cc21	-6%
CCc1ccccc1N(c1nc(-c2ccc(OC)c(OC)c2)no1)c1nc(-c2ccc(OC)c(OC)c2)no1	-2%
Cc1ccc(Cl)cc1NC(=O)CN1C(=O)CCc2ccccc21	8%
O=C(NCc1cccs1)c1ccc(CSc2nc3cccnc3n2Cc2ccccc2F)cc1	0%
CCc1ccc(-n2c(N3CCN(c4ccc(F)cc4)CC3)nc3ccccc3c2=O)cc1	28%
O=C(CSc1nc2ccccc2n1Cc1ccccc1F)NCc1ccccc1	0%
CCc1ccc(C(=O)c2cn(CC(=O)Nc3ccc4c(c3)OCCO4)c3ccc(F)cc3c2=O)cc1	1%
O=S(=O)(c1ccccc1)c1nc(-c2cccs2)oc1SCc1ccccc1F	-3%
COCCNC(=O)c1cc(-c2cccc(Cl)c2)on1	-71%
COc1cccc(C2C(C(N)=O)=C(C)Nc3ncnn32)c1 (stereo not drawn)	-1%
O=C(c1ccc2c(c1)N(Cc1ccccc1F)C(=O)c1ccccc1S2=O)N1CCN(c2ccccc2)CC1 (stereo not drawn)	20%
Cc1ccc(S(=O)(=O)N2CCN(Cc3nc4ccc(C)cc4o3)CC2)c(C)c1	-2%
CCOc1ccc(-c2cn3c(n2)sc2cc(C(=O)NCCC4=CCCCC4)ccc23)cc1	0%
O=C(CCNS(=O)(=O)c1ccc2c(c1)CCN2C(=O)C1CC1)Nc1ccc(Cl)cc1	8%
COc1ccccc1NC(=O)CCNS(=O)(=O)c1ccc2c(c1)CCCC(=O)N2	-1%
O=C(NCc1cccc(Br)c1)c1ccc(-n2cnc3cccnc32)cc1	?
CCc1ccc(CN(C(=O)c2nc(SC)ncc2Cl)C2CCS(=O)(=O)C2)cc1 (stereo not drawn)	-11%
COc1cccc(/C=C/c2nc(C#N)c(NCCN(C)C)o2)c1	-17%
CSc1ccc(CCNC(=O)C(C)n2nc(C)c3c(C)n(-c4ccccc4)nc3c2=O)cc1 (stereo not drawn)	14%
Cc1ccc(NC(=O)C2CCCN(S(=O)(=O)c3cccc4nsnc34)C2)cc1C (stereo not drawn)	8%
Cc1ccc(NC(=O)Cn2c(=O)n(CCC(C)C)c(=O)c3cccnc32)cc1C	2%
Cc1cc(=O)[nH]c2nnc(SCc3ccccc3F)n12	3%
CCOC(=O)COc1ccc([N+](=O)[O-])cc1-c1ccnc2cc(-c3ccc(C)cc3)nn12	-1%
O=C1CCCc2[nH]c(=O)c(-c3nc(-c4cccc([N+](=O)[O-])c4)cs3)cc21	-20%
COc1cc(OC)c(C2C=C(c3ccc(C)cc3)Nc3c(C(=O)Nc4ccccc4)cnn32)cc1OC (stereo not drawn)	11%
COc1ccc(NC(=O)c2ccc3c(c2)c(C)c(C)n3Cc2ccc(F)cc2)cc1	12%
CC(=O)Nc1ccc(NC(=O)c2ccc3c(c2)NC(=O)c2ccccc2S3)cc1	-9%
Cc1cccc(NC(=O)C2CCN(c3nnc(-n4c(C)ccc4C)s3)CC2)c1C	18%
CC1CCCCN1CCNC(=O)c1ccc(Cn2c(SCc3ccccc3)nc3cccnc32)cc1 (stereo not drawn)	-60%
O=C(c1ccc2c(c1)N(Cc1cccc(Cl)c1)C(=O)c1ccccc1S2(=O)=O)N1CCCCCC1	6%
CCCN(C(=O)c1cc2c(=O)[nH]c3ccc(C)cc3c2s1)c1ccc(CC)cc1	-4%
COc1cccc(C(=O)c2cn(CC(=O)NCc3ccccc3Cl)c3nc(C)ccc3c2=O)c1	-2%
Cc1ccc(CN2CCSc3ccc(C(=O)Nc4ccc(C)cc4)cc32)cc1	-7%

# (list continues)
canonical_smiles	miR-21 reporter
CS(=O)(=O)N1CCc2cc(C(=O)Nc3ccc(C(F)(F)F)cc3)ccc21	28%
CNC(=O)c1ccc2nc(Cc3ccccc3)oc2c1	-55%
Cc1cc2c(cc3c(SCc4cccc(Cl)c4)nnc(C)n32)o1	-31%
CCc1ccc2[nH]cc(S(=O)(=O)c3ccc(C(C)C)cc3)c(=O)c2c1	5%
O=C(Nc1ccc(Oc2ccccc2)cc1)C1CCN(S(=O)(=O)c2ccc(Cl)cc2)CC1	3%
Cc1ccc(NC(=O)N2CCN(c3nnc(C)c4c(C)n(-c5ccccc5)nc34)CC2)cc1Cl	0%
Cc1cc(=O)n(Cc2c(F)cccc2Cl)c2c1c(C)nn2-c1cccc(F)c1	-7%
CCc1ccc(CNc2nc3nc(C)c(Cc4ccccc4)c(=O)n3[nH]2)cc1	-4%
CCOC(=O)c1sc(N2C(=O)c3oc4ccc(F)cc4c(=O)c3C2c2cccc(OC)c2)nc1C (stereo not drawn)	-29%
Cc1nnc(N2CCN(C(=O)NCCC(C)C)CC2)c2nn(-c3ccc(Cl)cc3)c(C)c12	-4%
Cc1nc(-c2ccc(S(=O)(=O)NCc3ccccc3Cl)cc2)co1	-2%
CC(C)Oc1ccc(CNC(=O)c2ccc(NC(=O)c3nsc4ccccc34)cc2)cc1	-35%
Cc1ccc(NC(=O)C2CCCN(S(=O)(=O)c3cccc4cccnc34)C2)cc1Cl (stereo not drawn)	23%
CCc1ccccc1N1C(=O)N(CC(=O)c2ccc(OC)cc2)c2ccccc2S1(=O)=O	4%
CN1CCN(C2(CNC(=O)COc3ccc(C(C)(C)C)cc3)CCCCC2)CC1	-10%
Cc1ccc(NC(=O)Cn2cnc3onc(-c4ccc(F)cc4)c3c2=O)c(Cl)c1	-3%
COc1cccc(NC(=O)/C(C#N)=C/c2c(C)n(Cc3ccccc3)c3ccccc23)c1	6%
O=S(=O)(c1ccccc1)c1nnn2c1nc(NCc1ccc(Cl)cc1)c1sccc12	3%
COc1ccc(-c2cc(C(=O)Oc3ccc(Br)cc3)c3ccccc3n2)cc1	-12%
CCc1nn(CC(=O)Nc2cccc(C(C)=O)c2)c(=O)c2cc3sccc3n12	-8%
CCc1ccc(NC(=O)c2cnn(-c3c(C)cccc3C)c2C2CCN(C(=O)OC(C)(C)C)CC2)cc1	28%
CCOc1ccccc1CNCc1c(C(=O)O)n(Cc2ccccc2)c2cc(OC)ccc12	-6%
CCN(C(=O)c1cc2c(=O)oc3ccccc3c2s1)c1cccc(C(F)(F)F)c1	7%
Cc1ccc(Cl)cc1N1CCN(C(=O)Cn2cnc3onc(-c4ccc(F)cc4)c3c2=O)CC1	-2%
CCOc1cc(CNC(=O)CN2CCSc3ccccc32)cc(OCC)c1OCC	2%
CCn1ccc2cc(S(=O)(=O)N3CCCN(C(=O)Nc4ccccc4C(F)(F)F)CC3)ccc21	25%
Cc1ccc(S(=O)(=O)c2cn(C)c3cc(N4CCOCC4)c(F)cc3c2=O)c(C)c1	-7%
O=C(Nc1ccc2oc(-c3ccc4ccccc4c3)nc2c1)c1cccc(Cl)c1Cl	-38%
CCOc1cccc2cc(-c3nc(-c4ccccc4C)no3)c(=O)oc12	-35%
CCOc1ccc(CNC(=O)c2ccc3c(c2)nc2n3CCOC2)cc1	-47%

# Source: PubChem BioAssay (National Center for Advancing Translational Sciences (NCATS))
